KCNQ2 block: KCNQ2 potassium channel inhibitors, primary screen, cell-based, CHO-K1, FluxOR thallium flux, B-score (AID 2156). Potassium voltage-gated channel subfamily KQT member 2 (Rattus norvegicus), O88943. 20 min; stronger effect = lower value; only compounds with negative scores are shown here; some inactives read as strong as hits. B-score at 10 µM. 1.1% of 310,000 active;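 active means fluorescence ratio B-score at most minus 3 library SDs, with starting brightness B-score within 2 library SDs, cut at about -5.5 in these data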
Target sequence (O88943 whole entry, looked up): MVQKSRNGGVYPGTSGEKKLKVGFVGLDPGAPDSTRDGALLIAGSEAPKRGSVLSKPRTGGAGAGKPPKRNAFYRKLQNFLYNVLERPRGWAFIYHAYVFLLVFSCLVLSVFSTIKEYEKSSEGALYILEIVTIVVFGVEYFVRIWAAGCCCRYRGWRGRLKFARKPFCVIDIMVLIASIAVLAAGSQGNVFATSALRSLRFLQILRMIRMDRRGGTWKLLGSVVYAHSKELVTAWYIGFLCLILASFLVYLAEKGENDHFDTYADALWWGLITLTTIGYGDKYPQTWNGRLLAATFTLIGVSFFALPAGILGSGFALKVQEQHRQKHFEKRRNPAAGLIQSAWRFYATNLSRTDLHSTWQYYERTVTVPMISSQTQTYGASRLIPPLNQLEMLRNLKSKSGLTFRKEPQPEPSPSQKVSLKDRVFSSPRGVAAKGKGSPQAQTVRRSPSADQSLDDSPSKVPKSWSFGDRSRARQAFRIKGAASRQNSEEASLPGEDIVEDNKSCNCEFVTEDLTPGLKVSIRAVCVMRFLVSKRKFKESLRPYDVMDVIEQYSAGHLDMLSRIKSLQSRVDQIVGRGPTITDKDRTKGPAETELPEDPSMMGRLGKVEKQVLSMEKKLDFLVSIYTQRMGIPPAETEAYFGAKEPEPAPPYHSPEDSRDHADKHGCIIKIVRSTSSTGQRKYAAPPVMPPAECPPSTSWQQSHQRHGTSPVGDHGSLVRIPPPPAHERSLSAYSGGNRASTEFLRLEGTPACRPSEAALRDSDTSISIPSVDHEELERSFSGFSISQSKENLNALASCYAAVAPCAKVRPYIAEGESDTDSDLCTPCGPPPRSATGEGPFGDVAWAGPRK
KCNQ2 block baseline: also measured in KCNQ2 block; calls as there; B-score; measured here: initial fluorescence intensity artifact check;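 brightness before thallium and not channel activity; 0 = typical well and far values either way flag optical interference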
* hit, by the source's call; i = inactive. Some of the compounds tested, so the mix of outcomes need not match the whole.

item	SMILES	KCNQ2 block	KCNQ2 block baseline
1	COC(=O)c1cc(NC(=O)c2cccs2)ccc1N1CCOCC1	i	-1.1
2	Cc1cc(C)c(S(=O)(=O)Nc2ccc(OCC(=O)O)cc2)c(C)c1	i	0.63
3	CC(C)(C)c1ccc(C(=O)NCCCN2CCN(CCCNC(=O)c3ccc(C(C)(C)C)cc3)CC2)cc1	i	0.05
4	O=C(COC(=O)c1ccccc1Br)NCCc1ccc(F)cc1	i	-0.73
5	C=CCn1c(SCC(=O)N2CCOCC2)nc2c([nH]c3ccccc32)c1=O	i	-0.08
6	O=S(=O)(c1ccc(OCC2CO2)cc1)c1ccc(OCC2CO2)cc1 (stereo unspecified)	i	-0.65
7	Cc1csc(NC(=O)CSc2nc(=O)cc(N)n2-c2ccc(F)cc2)n1	i	0.45
8	Oc1ccc(C(c2nnnn2CCc2ccccc2)N2CCN(c3nc4ccccc4s3)CC2)cc1 (stereo unspecified)	i	0.28

item	SMILES	KCNQ2 block	KCNQ2 block baseline
9	CCOC(=O)CSC1=C(C#N)C(c2ccccc2OC)CC(=O)N1 (stereo unspecified)	i	-0.53
10	CCc1ccc2nc(SCC(=O)Nc3ccccc3N3CCOCC3)c(C#N)cc2c1	i	2.8
11	CC(NS(=O)(=O)OCC(Cl)(Cl)Cl)c1ccc(Br)cc1 (stereo unspecified)	i	-1.3
12	O=C(NCc1cccc(F)c1F)C1CCC(=O)N(C2CC2)C1 (stereo unspecified)	i	-0.53
13	Cc1cccc(N(CC(=O)NC(C)C)C(=O)c2ccc(N3CCCC3)nc2)c1	i	0.04
14	Cc1ccc(C(=O)c2cc([N+](=O)[O-])ccc2N2CCOCC2)c(C)c1	i	-0.19
15	CC1CCc2nc3ccccc3c(C(=O)OCC(=O)NC3CCS(=O)(=O)C3)c2C1 (stereo unspecified)	i	1.6
16	COC(=O)[C@H](Cc1ccccc1)NC(=O)[C@@H](N)CC(=O)O	i	2.1

item	SMILES	KCNQ2 block	KCNQ2 block baseline
17	Cc1ccc(O)c(NC(=O)c2cc(-c3ccc(F)cc3)on2)c1	i	0.01
18	COc1ccc(CNC(=O)c2ccc3c(c2)N(C)CCS3)cc1	i	-0.39
19	CC(C)(C)C(=O)Nc1ccc(S(=O)(=O)c2ccc(NC(=O)C(C)(C)C)cc2)cc1	i	1.1
20	C=CCNCCOCCOc1ccc(Cl)cc1C(C)(C)C	i	1.4
21	O=c1c2cn[nH]c2[nH]c(=S)n1-c1cccc2ccccc12	i	1.4
22	Cc1ccc(-c2nnc(Oc3cccc(C)c3)c3ccccc23)cc1	i	1.2
23	CC(Sc1nc(O)c(-c2ccccc2)c(=O)[nH]1)C(=O)Nc1ccc(Cl)cc1 (stereo unspecified)	i	-0.58
24	COc1cccc(CNS(=O)(=O)/C=C/c2ccc3c(c2)OCO3)c1	i	-0.32

Given with one line to a screen: entries from further up.
18) COc1ccc(CNC(=O)c2ccc3c(c2)N(C)CCS3)cc1
23) CC(Sc1nc(O)c(-c2ccccc2)c(=O)[nH]1)C(=O)Nc1ccc(Cl)cc1 (stereo unspecified)
24) COc1cccc(CNS(=O)(=O)/C=C/c2ccc3c(c2)OCO3)c1
17) Cc1ccc(O)c(NC(=O)c2cc(-c3ccc(F)cc3)on2)c1
19) CC(C)(C)C(=O)Nc1ccc(S(=O)(=O)c2ccc(NC(=O)C(C)(C)C)cc2)cc1
22) Cc1ccc(-c2nnc(Oc3cccc(C)c3)c3ccccc23)cc1
21) O=c1c2cn[nH]c2[nH]c(=S)n1-c1cccc2ccccc12
screen / no. | 18 | 23 | 24 | 17 | 19 | 22 | 21
KCNQ2 block | i | i | i | i | i | i | i
KCNQ2 block baseline | -0.39 | -0.58 | -0.32 | 0.01 | 1.1 | 1.2 | 1.4

Other records
item	SMILES	KCNQ2 block	KCNQ2 block baseline
25	Cc1ccc(N(CC(=O)N2CCc3ccccc32)C2=NC(=O)CS2)cc1	i	1.9
26	Cc1occc1-c1nnc(SCC(=O)c2ccc(F)cc2)n1Cc1ccco1	i	0.21
27	Cc1ccc(CN(C)c2nc(-c3cccnc3)nc3ccccc23)o1	i	-0.03
28	Cc1ccc(C(=O)CC2(O)C(=O)N(Cc3ccc4c(c3)OCO4)c3ccccc32)cc1 (stereo unspecified)	i	0.39
29	O=C(CSc1nnnn1C1CCCCC1)NCc1cccs1	i	-0.71
30	COc1cc(Cl)cc2c1Sc1ccccc1/C2=C/CCN(C)C	-7*	0.12*
31	COCCN(CCOC)C(=O)c1cc2c(=O)n3ccccc3nc2s1	i	0.15
32	Cc1nc(N2CCN(c3ccccn3)CC2)c2c(C)c(C(=O)Nc3ccc(F)cc3F)sc2n1	i	0.39

item	SMILES	KCNQ2 block	KCNQ2 block baseline
33	O=C(O)CCc1nnc2n(Cc3ccc(F)cc3)c(=O)c3ccccc3n12	i	1.1
34	CC(=O)Nc1ccccc1NC(=O)C/C(C)=N/NC(=O)C(=O)N1CCCCC1	i	0.01
35	COc1ccc(-c2csc(NS(=O)(=O)c3ccc([N+](=O)[O-])cc3)n2)cc1	i	0.05
36	CSCCC(NC(=O)c1ccccc1Br)C(=O)NCC1CCCCC1 (stereo unspecified)	i	-0.16
37	COc1ccc(CNC[C@@H](CCCCN(C)Cc2ccc(OC)cc2)N2C[C@H](c3ccccc3)N(CCc3ccc(Cl)c(Cl)c3)C(=O)C2=O)cc1	i	0.47
38	COc1ccc([N+](=O)[O-])c(OC)c1C(=O)NC(=O)Nc1c(F)c(F)c(F)c(F)c1F	i	-0.29
39	COc1cc(C(=S)N2CCCC2)ccc1OCc1ccc(C)cc1	i	0.49
40	Cc1ccccc1NC(=O)Nc1nnc(CC(=O)NCc2ccccc2)s1	i	0.53

#	structure	KCNQ2 block	KCNQ2 block baseline
41	Cc1ccc(C(C)C)cc1OCC(=O)NNC(=O)Nc1ccccc1	i	3.9
42	COc1ccc(CCNC(=O)CCCCCN2C(=O)[C@@H]3Cc4ccccc4CN3C2=O)cc1OC	i	1.5
43	COc1ccc(CN2[C@@H](CC(C)=O)c3ccc(/C=C/C(C)=O)cc3S2(=O)=O)cc1	i	1.2
44	CCC1(C)Cc2c(sc3c2c(=O)n(C)c2nnc(SCC(=O)c4ccccc4)n32)CO1 (stereo unspecified)	i	1.9
45	COc1ccc(OC)c(NC(=O)c2ccc3c(c2)C(=O)N(c2ccc(OC(C)=O)cc2)C3=O)c1	i	0.67
46	COc1ccc(C(=O)C[n+]2cccc3cc(OC)ccc32)cc1	i	2.4
47	Cc1ccc(OCCNC(=O)/C=C/c2ccccc2)cc1C	i	0.1
48	CCOc1ccc(NC(=S)N(CCc2c(C)[nH]c3ccc(C)cc23)Cc2cccnc2)cc1	i	-0.58
49	COc1ccccc1N1CCN(C(c2ccc(N(C)C)cc2)c2nnnn2CCc2ccccc2)CC1 (stereo unspecified)	i	-0.64
50	CCCCc1cc(=O)oc2cc(C)cc(OCC(=O)NCc3ccncc3)c12	i	-0.34
51	O=C(N1CCOCC1)N(CCN1CCOCC1)Cc1cccc2ccccc12	i	0.17
52	CC1Cc2nc(SCC(=O)NCC3CCCO3)n(C)c(=O)c2S1 (stereo unspecified)	i	-0.03
53	Cc1c(C(=O)Nc2ccccc2)sc2nc(-c3ccccc3)cn12	i	-1.6
54	COc1ccc(OC)c(/C=N/NC(=O)CCc2ccc(O)c(O)c2)c1	i	0.7
55	Cc1nn(C2CCS(=O)(=O)C2)c(Cl)c1/C=C/C(=O)OCC(=O)N(C)C (stereo unspecified)	i	-0.33
56	NS(=O)(=O)c1ccc(NC(=O)C2CCCN(S(=O)(=O)c3ccc(F)cc3)C2)cc1 (stereo unspecified)	i	1.4
57	C=C(C)COc1ccc2c(C)c(CCC(=O)NC3CC3)c(=O)oc2c1	i	-0.24
58	O=[N+]([O-])c1ccc(Oc2ccc(F)cc2)c2ccncc12	i	-1.4
59	O=C(Nc1ccc(Cl)cn1)c1cccc2c(Br)cccc12	i	-0.83
60	CCOC(=O)c1c(NC(=O)c2ccc(C)cc2)sc2c1CC(C)(C)NC2(C)C	i	0.34
61	O=C(COc1ccc(Cl)cc1Cl)N/N=C/CCc1ccccc1	i	2
62	Nc1ncnc2c1cnn2C1CCCCC1	i	-0.56
63	Cc1ccc(C2c3[nH]c4ccccc4c3C[C@H]3C(=O)N(c4ccccc4C(=O)N4CCC[C@@H]4C(=O)O)C(=O)N23)cc1 (stereo partly specified)	i	0.83
64	COc1ccc(-n2ncc3c2CC(C)(C)CC3NC(=O)c2ccoc2C)cc1 (stereo unspecified)	i	-0.01
65	CC1CN(C(=O)c2c(Br)cnn2C)CC(C)O1 (stereo unspecified)	i	0.87
66	CC(Nc1ccc2c(c1)OCCO2)C(=O)N1c2ccccc2CC1C (stereo unspecified)	i	-1.5
67	Cc1ccc(NC(=S)/C(=C(\[O-])c2ccc(F)cc2)[n+]2ccccc2)cc1	i	0.17
68	COc1ccc(F)c(CN2CCCC(CO)(Cc3cccc(Cl)c3)C2)c1 (stereo unspecified)	i	-1.6
69	CCOC1CS(=O)(=O)CC1OCC (stereo unspecified)	i	1.5
70	Cc1nn(-c2ccccc2)c2nc(-c3ccncc3)cc(C(=O)NCc3ccco3)c12	i	-0.06

#	structure	KCNQ2 block	KCNQ2 block baseline
71	C/C(CC(=O)Nc1cccc2c1CCCC2)=N\NC=O	i	-0.19
72	Cc1cc(OCC(=O)NCC2CCC(C(=O)O)CC2)c2c(C)c(C)c(=O)oc2c1 (stereo unspecified)	i	1.3
73	CCCCCn1c(N)c(-c2nc3ccccc3s2)c2c([N+](=O)[O-])nn(C)c(=O)c21	i	-0.4
74	CSCCC(NS(=O)(=O)c1ccc(C)cc1)C(=O)NC1CCCCC1 (stereo unspecified)	i	-1.4
75	CC[C@@H]1CC=C[C@H]2[C@H]1C(=O)N(Cc1ccccc1)[C@H]2c1ccc(C(F)(F)F)cc1	i	0.03
76	COc1ccc(C(=O)Nc2ccccc2-c2nnn(CC(=O)N3CCOCC3)n2)cc1	i	-0.81
77	CC1C(=O)C(C)C(c2ccccc2F)NC1c1ccccc1F (stereo unspecified)	i	1.4
78	Cc1onc(-c2c(Cl)cccc2Cl)c1C(=O)Nc1nccs1	i	0.65
79	CCCNC(=O)c1oc2ccc3c(c2c1C)C=CC(C)(C)O3	i	-0.65
80	CCOc1ccc(NC2c3ccccc3C(=O)N2Cc2ccco2)cc1 (stereo unspecified)	i	0.03
81	COc1ccc(CC(=O)O/N=C(\N)Cc2ccc([N+](=O)[O-])cc2)cc1	i	1.3
82	CCn1c(C2CC(=O)N(Cc3ccccc3)C2)nc2ccccc21 (stereo unspecified)	i	-0.19
83	O=C(CN1CCOCC1)n1c2c(c3ccccc31)CCCC2	i	0.17
84	Cc1ccc(Sc2c(C(=O)Nc3ccc(F)cc3F)c(C(F)(F)F)nn2C)cc1	i	0.79
85	CNc1c(-n2cc(C(=O)OC)c(C(=O)OC)c2C(=O)OC)c(=O)n(C)c(=O)n1C	i	1.1
86	O=C(O)c1c(NC(=O)N2CCCC2)sc2c1CCCC2	i	1.8
87	O=C1CN(C(=O)c2cc([N+](=O)[O-])ccc2Cl)C(c2ccccc2)c2cc(F)ccc2N1 (stereo unspecified)	i	-0.82
88	O=C(COC(=O)C(O)c1ccccc1)NC12CC3CC(CC(C3)C1)C2 (stereo unspecified)	i	-0.81
89	CCC(c1nnnn1C(C)(C)C)N(Cc1ccco1)Cc1cc2cccc(C)c2[nH]c1=O (stereo unspecified)	i	0.34
90	CCC(Sc1ncnc2sc(C)c(C)c12)C(=O)OC (stereo unspecified)	i	-0.58
91	Cc1ccc(S(=O)(=O)N2CCOCC2)cc1C(=O)N1CCCCCC1	i	0.36
92	COc1cccc(N(C(=O)c2ccco2)c2nc(-c3sc(NC(=O)c4ccco4)nc3C)cs2)c1	i	-0.8
93	Cc1ccnc(NC(=O)CCNS(=O)(=O)c2ccc(C)c(C)c2)c1	i	1.2
94	CCc1ccc(OCC(O)CNC(C)(C)C)cc1 (stereo unspecified)	i	-1.1
95	COc1cccc(-c2nnc(NC(=O)c3ccc4ncsc4c3)o2)c1	i	-0.08
96	CC(C)CNC(=O)c1cc(-c2ccc(Cl)c(Cl)c2)on1	i	-0.69
97	Fc1ccc(CSc2nncn2NCc2ccccc2)cc1	i	1
98	Cc1cc(OCc2cc(C(=O)NCCN3CCCCC3CO)no2)cc(C)c1Cl (stereo unspecified)	-7.9*	-0.43*
99	Cc1cc(C(=O)N/N=C/c2ccc(N3CCOCC3)cc2)c(C)o1	i	-2.1
100	CC(C)[C@H](NC(=O)N1c2ccccc2NC(=O)[C@@H]1C(C)C)C(=O)N1CCC(C(=O)O)CC1	i	-0.4

Random excerpt: 5 records from the list, in no set order.
#	structure	KCNQ2 block	KCNQ2 block baseline
9	CCOC(=O)CSC1=C(C#N)C(c2ccccc2OC)CC(=O)N1 (stereo unspecified)	i	-0.53
58	O=[N+]([O-])c1ccc(Oc2ccc(F)cc2)c2ccncc12	i	-1.4
95	COc1cccc(-c2nnc(NC(=O)c3ccc4ncsc4c3)o2)c1	i	-0.08
99	Cc1cc(C(=O)N/N=C/c2ccc(N3CCOCC3)cc2)c(C)o1	i	-2.1
69	CCOC1CS(=O)(=O)CC1OCC (stereo unspecified)	i	1.5

Following part:
#	structure	KCNQ2 block	KCNQ2 block baseline
101	Cc1ccc(NC(=O)/C=C/c2ccc3c(c2)OCO3)nc1	i	0.5
102	Cc1cc(C)cc(NC(=S)Nc2ccccn2)c1	i	1.3
103	CNc1cc(C)nc(-n2nc(C)cc2C)n1	i	-0.14
104	CC1=C/C(=N\NC(=O)c2ccc(O)cc2)CC1	i	0.55
105	CSc1nnc([C@@H]2CCCN2C(=O)OC(C)(C)C)o1	i	0.03
106	COc1ccc(CCNC(=S)NC(=O)c2ccc(Br)cc2)cc1OC	i	-0.02
107	Fc1ccc(-c2nnn(Cc3ccc(F)cc3Cl)n2)cc1	i	0.12
108	c1ccc2nc(-c3ccncc3)ccc2c1	i	1.8
109	CCCCc1ccc(NC(=O)C2CCCO2)cc1 (stereo unspecified)	i	-2.7
110	O=C(Nc1cccc(Cl)c1)c1cc2c(=O)n3ccccc3nc2s1	i	1.8
111	S=C1NCN(C2CCCCC2)CN1Cc1ccccc1	i	0.65

Compound activity from PubChem BioAssay.
